Bioassay records deposited in PubChem by National Center for Advancing Translational Sciences (NCATS).
Sfp PPTase inh: blocks B. subtilis Sfp PPTase activity | Q9F4F7 | Biochemical Sfp PPTase activity, qHTS | Potency, µM, without a hit: max response, negative = inhibition, actives largely listed as inhibitors | 3.5% of 310,000 active; active = well fitted inhibition curve with a large enough effect; inconclusive = small, poorly fitted or top-dose-only effect, or another doubt; inactive = no such curve, though single readings can be large or run the other way;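 note: the enzyme is Sfp with the accession as filed and its product quenches rhodamine fluorescence; potency is the fitted concentration of half-maximal effect; 0% = enzyme reaction without inhibitor and -100% = no enzyme wells; top concentration of the series not given in the record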
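After 15 min at room temperature with compound, 15 nM Sfp received 5 uM rhodamine-CoA plus 12.5 uM BHQ-2-ybbR (50 mM Hepes pH 7.6, 10 mM MgCl2). Rate came from the fluorescence difference over 30 min, ex 525/em 598 nm.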
gsp agonist: agonists of gsp mutant (McCune-Albright syndrome); gsp mutant cells, cAMP HTRF, 30 min; control for the full effect not named in the record; 0.13% of 340,000 active; Potency, µM (doses to about 76.9 µM), for the others: at the highest dose activation (cAMP increase), hits mostly activators; active = well fitted activation curve with a large enough effect; inconclusive = small, poorly fitted or top-dose-only effect, or another doubt; inactive = no such curve, though single readings can be large or run the other way; cell line not stated here;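 note: phosphodiesterase inhibitor Ro 20-1724 added with compounds to block cAMP breakdown; potency is the fitted concentration of half-maximal effect; nearly all actives have a fitted effect of over 60% in size; about a fifth of the inactives were tested at one dose only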
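Cells stably selected in G418 were plated at 2000/well, grown 16-24 hr, then given compounds in DMSO with the PDE inhibitor […] (300 uM solution added) for 30 min at 37C; cAMP was read by HTRF.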
ClpP mod: qHTS Assay for Activators of ClpP; ATP-dependent Clp protease proteolytic subunit (Bacillus subtilis (strain 168)), P80244; purified B. subtilis ClpP, FRET peptide cleavage, 20 min; Potency, µM (series often up to 57.5 µM), for inactives: at the highest dose activity change, negative = active; 1.9% of 340,000 active; active = well fitted falling curve with a large enough effect; inconclusive = small, poorly fitted or top-dose-only effect; inactive = no such curve, though single readings can be large or run the other way; note: potency is the fitted concentration of half-maximal effect; the source files actives as falling curves though it sought activators and does not explain the sign; nearly all actives have a fitted effect of over 65% in size; many hits overshoot -100%
Target sequence (P80244 whole entry, looked up): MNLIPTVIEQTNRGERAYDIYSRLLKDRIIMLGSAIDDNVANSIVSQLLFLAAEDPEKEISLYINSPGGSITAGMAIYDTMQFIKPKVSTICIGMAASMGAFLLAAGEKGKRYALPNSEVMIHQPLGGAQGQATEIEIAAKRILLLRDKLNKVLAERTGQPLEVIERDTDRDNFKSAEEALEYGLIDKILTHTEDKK
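Purified B. subtilis ClpP, 10 microg/mL final in Tris/HCl pH8 with KCl, BSA, glycerol and Tween-20, cleaved an Abz/nitrotyrosine-quenched decapeptide. Fluorescence (ex 320, em 430) was read at 0 and 20 min at room temperature. Delta was normalized to 5.8 microM ADEP and DMSO/no-enzyme controls.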
D2 PAM: human D2 receptor positive allosteric modulation; P14416; 0.23% of 360,000 active; DiscoveRx D2 beta-arrestin cells, luminescence, 90 min; 100% = 57 uM dopamine signal; potentiation, % (test concentration not listed); AID 624464; active = potentiation of 50% or more; inconclusive = 30% to 50%; inactive = 30% or less;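 note: compound concentration not given in the record; tested on top of an EC20 dose of dopamine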
Target sequence (P14416 whole entry, looked up): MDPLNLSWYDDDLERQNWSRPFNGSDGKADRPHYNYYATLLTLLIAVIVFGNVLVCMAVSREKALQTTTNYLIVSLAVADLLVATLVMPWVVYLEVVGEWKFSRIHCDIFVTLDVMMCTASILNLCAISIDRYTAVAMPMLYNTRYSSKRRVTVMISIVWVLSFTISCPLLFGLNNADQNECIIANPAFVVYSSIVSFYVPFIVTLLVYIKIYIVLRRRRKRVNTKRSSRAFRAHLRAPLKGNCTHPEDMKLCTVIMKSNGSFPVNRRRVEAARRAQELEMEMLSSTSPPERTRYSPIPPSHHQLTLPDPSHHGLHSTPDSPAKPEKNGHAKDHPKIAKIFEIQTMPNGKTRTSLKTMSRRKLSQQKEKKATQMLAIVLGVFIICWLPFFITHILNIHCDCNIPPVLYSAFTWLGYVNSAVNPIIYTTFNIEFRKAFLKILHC
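D2 cells co-treated with compound plus 50 nM dopamine (EC20) for 90 min at 37 deg C to detect potentiation. Beta-arrestin recruitment was read as enzyme-fragment luminescence after 1 h at ambient temperature. Full response was set by 57 uM dopamine.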
gsp antag: gsp mutant antagonism; 0.4% of 340,000 active; gsp-mutant cells, cAMP HTRF, 30 min; control for the full effect not named in the record; Potency, µM (series often up to 76.9 µM), for the others: top-dose activity change, negative = inhibition, hits mostly inhibitors; AID 624288; active = falling curve of any shape with a large fitted effect; inconclusive = falling curve, mostly with a smaller effect; inactive = flat or rising curve; cell line not stated here;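 note: intracellular cAMP measured with PDE inhibitor Ro 20-1724 present during compound exposure; potency is the fitted concentration of half-maximal effect; % is set by controls: 0 for no effect and ±100 for the full control effect; nearly all actives have a fitted effect of over 65% in size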
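G418-selected cells were plated in DMEM/10% FBS for 16-24 h at 37C, then treated with compounds plus the PDE inhibitor […] (300 uM solution added) for 30 min at 37C. Intracellular cAMP was measured by HTRF after 30 min lysis at room temperature.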
Menin MLL FP FL: menin-MLL binding inhibition, fluorescein peptide; FP activity change, % at 61.4 µM; Fluorescence polarization, fluorescein-MLL peptide displacement from menin; 290,000 tested, under 10 active; inconclusive = falling polarisation curve, or a change in total fluorescence; inactive = total fluorescence flat and polarisation flat or rising; no compound was filed as active; the % refers to the polarisation; negative = inhibition;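 note: % of control where 0% means no effect; inhibitors lower the polarisation; unlabelled MLL peptide was the positive control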
TRPV1 PAM: enhances activation of the human vanilloid receptor TRPV1; potentiation, % at 8.33 µM; 0.02% of 320,000 active; TRPV1-expressing cells, Fluo-8 calcium influx, capsaicin EC20 potentiation; host cell line not named in the record; control for the full effect not named in the record; active means potentiation above 80%; inconclusive means 30% to 80%; inactive means below 30%; note: 0% is about no effect
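TRPV1-expressing cells were cultured overnight at 35.5C and loaded with Fluo-8 calcium dye for 40 to 90 min at room temperature. After a 10 s baseline, compound was added and calcium influx was read kinetically for 3 min (ex 480/em 520 nm).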
An asterisk follows results filed as active; ? = inconclusive; · = not tested or not shown; [ ] = another dose, or the depositor's remark.

SMILES | Sfp PPTase inh | gsp agonist | ClpP mod | D2 PAM | gsp antag | Menin MLL FP FL | TRPV1 PAM
C=CCSc1ncccc1C(=O)NCc1ccc(C)cc1 | 12.6% | 15.1% | 0.2% | -1.8 | -10.1% | -1.4 | -0.5
CCc1ccccc1NC(=S)N1N=CCC1c1ccccc1 (stereo unspecified) | 18.6% | -0.8%[15.4 µM] | · | -8.5 | -0.5% | -0.3 | 2.2
Cc1cc(C)n2c(SCc3ccccc3Cl)nnc2n1 | 0.4% | -1.5% | -4.6% | -12.7 | -1.4% | 0.8 | -8.3
COCC(=O)OCC(=O)c1cc(C)n(-c2ccc(Br)cc2)c1C | 3.3% | -0.4%[15.4 µM] | · | -1.0 | 7.1% | -0.7 | -5.7
CCN(CC)C(=O)c1sc(N2C(=O)Nc3ccccc3N2O)c(C(=O)OC)c1C | 12.5% | 28.0% | -1.1% | -4.6 | -1.4% | 1.5 | -15.7
CC(NC(=O)C1CC2CCCC(C1)C2=O)c1ccccc1 (stereo unspecified) | 12.0% | -5.0% | 1.2% | -6.7 | 9.3% | 6.2 | 2.0
C/C(Cl)=C\Cn1c(O)c(N=NC(N)=S)c2cc(Br)ccc21 | 7.3% | 4.0% | -0.2% | -34.3 | 1.0% | 0.3 | -18.8
COc1cccc(C(C)NC(=O)C2CCCC2)c1 (stereo unspecified) | 2.8% | ? | -2.1% | 0.6 | -10.0% | -2.9 | -6.3
Cc1ccc(Nc2nc(NCC3CCCO3)nc(N)c2[N+](=O)[O-])cc1C (stereo unspecified) | 13.5% | -16.5% | 2.2% | -12.8 | 0.9% | · | 5.7
CN1CCN(CC(=O)N2N=C(c3cccs3)CC2c2ccco2)CC1 (stereo unspecified) | 13.0% | ? | -14.2% | -21.7 | 16.1% | -1.9 | -17.9
CCn1nnc2cc(C(=O)N3CCC(C(=O)OC)CC3)ccc21 | · | 14.8% | · | -3.1 | 7.3% | · | ·
COc1cc(CN2CCNC(=O)C2CC(=O)N2CCc3ccccc3C2)cc(OC)c1 (stereo unspecified) | 0.8% | -37.5%[inhibitor] | -3.4% | -5.6 | -2.9% | 0.7 | 8.0

Grouped by structure: those above with a halogen
SMILES | Sfp PPTase inh | gsp agonist | ClpP mod | D2 PAM | gsp antag | Menin MLL FP FL | TRPV1 PAM
Cc1cc(C)n2c(SCc3ccccc3Cl)nnc2n1 | 0.4% | -1.5% | -4.6% | -12.7 | -1.4% | 0.8 | -8.3
COCC(=O)OCC(=O)c1cc(C)n(-c2ccc(Br)cc2)c1C | 3.3% | -0.4%[15.4 µM] | · | -1.0 | 7.1% | -0.7 | -5.7
C/C(Cl)=C\Cn1c(O)c(N=NC(N)=S)c2cc(Br)ccc21 | 7.3% | 4.0% | -0.2% | -34.3 | 1.0% | 0.3 | -18.8

Next records follow.
SMILES | Sfp PPTase inh | gsp agonist | ClpP mod | D2 PAM | gsp antag | Menin MLL FP FL | TRPV1 PAM
Cc1occc1-c1nnc(SCC(=O)NCCc2ccccc2)n1Cc1ccccc1 | -20.4% | -33.8%[inhibitor] | -0.7% | 4.4 | -29.3% | 5.6 | -2.8
O=C(NCc1ccc(Cl)cc1)c1cc2ccccn2n1 | -7.2% | 2.4% | -17.5% | -5.8 | 14.3% | -1.1 | -41.6
O=C(NCC1(N2CCCCC2)CCCCC1)c1cccc(NS(=O)(=O)c2ccccc2)c1 | · | 12.1%[15.4 µM] | -1.8% | -11.2 | -0.8% | · | 10.1
CCN(CC)c1ccc(CC(=O)NC(C)Cc2ccccc2)cc1 (stereo unspecified) | 14.5% | ? | 1.2% | -21.2 | -4.6% | 1.6 | -4.6
O=c1c(Cc2ccc(Cl)cc2)c(O)ccn1Cc1ccncc1 | 14.3% | -8.9% | 0.8% | -8.3 | 1.6% | -0.2 | -2.8
O=C(NN1C(=O)C2C3CCC(O3)C2C1=O)c1ccc(Cl)cc1 (stereo unspecified) | 31.3% | 4.4%[15.4 µM] | -1.5% | -2.4 | 9.2% | 2.1 | 4.6
CC(OC(=O)c1cc(S(=O)(=O)N2CCOCC2)ccc1F)C(=O)NCc1ccc2c(c1)OCO2 (stereo unspecified) | · | 2.6% | -1.9% | 4.9 | 1.9% | · | 28.1
Cc1cccn2cc(-c3cccc(S(=O)(=O)N4CCCCC4)c3)nc12 | -2.1% | 24.8% | ? | -10.0 | -23.8% | -3.1 | -7.5
CCc1nc(SCc2ccc(C(=O)OC)o2)c2c(=O)n(C)c(=O)n(C)c2n1 | -22.1% | -13.1% | -1.5% | -0.6 | -1.3% | 1.4 | 12.6
CCC(CC)NC(=O)C1CCN(S(=O)(=O)c2cccs2)CC1 | -7.2% | -1.2% | 0.1% | 0.7 | 5.6% | 0.7 | -9.5
CCOc1ccccc1CN1CCN(Cc2ccc(C)o2)CC1CCO (stereo unspecified) | 4.3% | 11.6% | 1.0% | -6.2 | 11.8% | -6.1 | -2.5
Cc1nc(Cc2ccc(OC(C)C)cc2)[nH]c(=O)c1CC(=O)O | 16.9% | 1.8%[15.4 µM] | · | 0.6 | 1.6% | 0.9 | -5.4

Whole records, quoted from the list. Values in the order: Sfp PPTase inh	gsp agonist	ClpP mod	D2 PAM	gsp antag	Menin MLL FP FL	TRPV1 PAM
Entry for Cc1cccn2cc(-c3cccc(S(=O)(=O)N4CCCCC4)c3)nc12 = -2.1%	24.8%	?	-10.0	-23.8%	-3.1	-7.5
Entry for CCOc1ccccc1CN1CCN(Cc2ccc(C)o2)CC1CCO (stereo unspecified) = 4.3%	11.6%	1.0%	-6.2	11.8%	-6.1	-2.5
Entry for CCN(CC)c1ccc(CC(=O)NC(C)Cc2ccccc2)cc1 (stereo unspecified) = 14.5%	?	1.2%	-21.2	-4.6%	1.6	-4.6

Other results follow:
SMILES | Sfp PPTase inh | gsp agonist | ClpP mod | D2 PAM | gsp antag | Menin MLL FP FL | TRPV1 PAM
Cc1nc(C(F)(F)F)c(C(=O)N/N=C(\N)c2cccnc2)s1 | ? | -3.0% | · | 5.5 | 5.7% | 1.0 | 6.3
Cc1ccccc1-n1cc(CNC(=O)CCc2nnc(CCc3ccccc3)o2)cn1 | 15.3% | -10.7%[15.4 µM] | · | -0.1 | -0.4% | -0.4 | 15.9
Cc1c(C(=O)OCC(=O)N2CCCC2)cccc1[N+](=O)[O-] | 26.0% | -3.1% | · | 1.8 | -1.1% | -0.8 | 1.4
Cc1cc2c(cc1S(=O)(=O)N1CCN(c3ccc(Cl)cc3)CC1)OCCN2C | 21.4% | 7.2% | ? | -10.3 | -6.7% | -2.1 | 10.5
O=S(=O)(Cc1ccc(Cl)cc1)Nc1ccc2c(c1)OCO2 | 12.2% | -6.6% | 0.0% | -8.4 | -4.3% | 3.4 | -10.1
CN1CCC(N(C)S(=O)(=O)c2ccc(NC(=O)COc3ccc(F)cc3)cc2)CC1 | · | -31.4%[inhibitor] | -1.4% | -29.3 | 9.3% | · | -1.4
CCOc1ccc(N2C(=O)C3Sc4[nH]c(=O)sc4C(c4ccc(OC)c(OC)c4)C3C2=O)cc1 (stereo unspecified) | -27.3% | -2.0%[15.4 µM] | · | -4.7 | -26.1% | -0.9 | 11.6
COC(=O)C1=C(C)N(C)C(=O)/C1=C\c1ccco1 | -7.7% | -7.8% | 0.4% | -14.3 | -7.7% | -0.5 | 1.7
Nc1nc(-c2ccc(-c3ccccc3)cc2)cs1 | -40.2% | -9.1% | · | -9.5 | -3.1% | -0.4 | -7.5
CC(C)NC(=O)C1CCN(C2CCN(Cc3cn[nH]c3-c3ccccc3)CC2)CC1 | 16.5% | 0.6% | · | 0.1 | 4.0% | -0.2 | ?
CN(Cc1c(F)cccc1Cl)C(=O)C1=CC=CN2CCS(=O)(=O)N=C12 | · | ? | 3.4% | 4.6 | 17.3% | · | ·
Cc1onc(-c2ccccc2Cl)c1C(=O)NCc1cccs1 | 4.8% | -9.5% | 0.2% | -8.4 | -2.7% | 2.1 | -13.2
COc1ccc2oc(C(=O)N(Cc3ccco3)Cc3cccs3)c(C)c2c1 | · | ? | -15.6% | -1.7 | -9.2% | · | 6.9
COc1ccc(-c2cc(C(=O)Nc3ccc(S(=O)(=O)Nc4onc(C)c4C)cc3)c3ccccc3n2)cc1OC | -23.7% | -4.5% | -4.8% | -6.3 | -9.8% | 3.3 | -13.3
COc1cc(NC(=O)c2ccccc2)c(OC)cc1NC(=O)CSc1[nH]c(=O)cc(C)c1C#N | -6.9% | ? | · | 5.5 | -3.6% | 3.8 | 4.3
CC(C)CNC(=O)c1cc2nc3c(c(C(F)(F)F)n2n1)CCc1ccccc1-3 | 16.4% | -1.0% | -1.4% | 0.1 | 13.4% | 1.9 | -11.8
O=[N+]([O-])c1ccc([C@H](O)[C@H](CO)N=Cc2ccccc2O)cc1 | -13.6% | -47.7%[inhibitor] | 1.4% | -7.9 | -5.1% | 0.6 | 0.5
Cc1ccccc1Cn1c(=O)n(CCCC(=O)NCc2ccco2)c(=O)c2ccccc21 | -14.3% | -20.2% | -16.5% | 2.2 | -2.6% | -2.0 | -3.3
N#C/C(=C/c1ccc(C(=O)O)cc1)C(=O)NCc1ccccc1 | 17.8µM* | -0.8% | -1.1% | 2.8 | 7.5% | 1.4 | -5.0
CCOc1ccc(C(=O)Nc2ccc(C(F)(F)F)n(C)c2=O)cc1 | 5.6% | 28.2µM* | · | -0.4 | 3.2% | 0.3 | 6.5
CCC(CC)c1nnc(NC(=O)c2cc(C(=O)OC)cc([N+](=O)[O-])c2)s1 | 44.7µM* | 9.9%[15.4 µM] | -3.1% | -4.0 | -33.2% | 2.6 | -24.6
CCCNC(=S)N1CCC(C(=O)c2ccc(OC)cc2)CC1 | 11.4% | 0.2%[15.4 µM] | · | -6.3 | -10.0% | 4.5 | -18.3
CCCc1cc(=O)oc2cc(C)cc(OCC(=O)Nc3ccc(S(N)(=O)=O)cc3)c12 | 12.8% | -0.3% | ? | -9.9 | -10.0% | · | -2.4
CCN(C(=O)Cc1ccc(Br)cc1)C1CCCCC1 | 5.8% | 15.8% | ? | -29.8 | -4.7% | 0.3 | -17.1
